Compound activity (PubChem BioAssay)
2A StopGo: lowers the luciferase signal of an FMDV 2A StopGo reporter. human cells with a luciferase reporter of 2A StopGo recoding; control for the full effect not named in the record. Potency, µM (top dose mostly 57.9 µM), without a hit: at the highest dose signal change, negative = less light. 1.2% of 410,000 active; active = well fitted falling curve with a large enough effect; inconclusive = small, poorly fitted or top-dose-only effect; inactive = no such curve, though single readings can be large or run the other way; tested in HEK293T cells; also: nearly all actives have a fitted effect of over 45% in size; luciferase light after 4 h
RE007 growth inh: less growth of the S. pombe RE007 Vpr strain | 0.21% of 360,000 active | Potency, µM (series often up to 92.2 µM), inactives show at the top dose activity change, negative = less growth | AID 651644 | S. pombe RE007 Vpr strain, BacTiter-Glo ATP luminescence, 24 h; control for the full effect not named in the record; active = well fitted falling curve with a large enough effect; inconclusive = small, poorly fitted or top-dose-only effect; inactive = no such curve, though single readings can be large or run the other way;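 also: nearly all actives have a fitted effect of over 50% in size; the assay follows cell death caused by Vpr and the record does not say whether a fall means rescue or toxicity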
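Fission yeast strain RE007, carrying one chromosomally integrated HIV-1 vpr copy, was seeded at OD 0.01 in PMG+AL medium with 23 nL pinned compound. After 24 h at 30 °C and 99% humidity, viability was read by BacTiter-Glo luminescence.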
The depositor's hits bear a star; ? = inconclusive; & = joins results of further samples; [ ] = another dose, or the depositor's remark. % is scaled to controls: 0 for no effect and ±100 for the full control effect; potency is read from the fitted curve at half-maximal effect.

SMILES | 2A StopGo | RE007 growth inh
CC(OC(=O)[C@@H](NC(=O)OCc1ccccc1)C(C)C)C(=O)Nc1ccc(N2CCOCC2)cc1 (some centres not stated) | 8% | -19%
O=C(CCOc1ccccc1)N1CCCC(Nc2ccccc2)C1 (configuration not stated) | -20% | -14%
CCS(=O)(=O)NCc1nnc2n1-c1ccc(Br)cc1C(c1ccccc1Cl)=NC2 | -7% | -2%
O=C(Cc1ccc(Br)cc1)Nc1cccc(S(=O)(=O)N2CCCCC2)c1 | -3% | 1%
COc1cccc(C(=O)N2CCN(c3nc4cc(C)cc(C)c4cc3C#N)CC2)c1 | ? | 7%
O=C(c1ccccc1)c1sc(Nc2ccc3c(c2)OCO3)nc1-c1ccccc1 | 0% | 2%
CCN1C(=O)[C@H]2[C@@H](c3ccc(OC)cc3)N[C@]3(CCCN(Cc4ccccc4)C3=O)[C@H]2C1=O | -17% | 17%
N#Cc1ccc(-c2nc3ccc(Br)cn3c2Cc2ccccc2)cc1 | -18% | -8%
O=C(Nc1ccc(Oc2ccccc2)cc1)c1csc([C@@H]2O[C@H](CO)[C@H](O)[C@H](O)[C@H]2O)n1 | -4% | 1%
CCOC(=O)c1sc2nc(OCc3cccnc3)cc(C)c2c1N | 4% | -16%
C[C@H]1CCCCO[C@@H](CN(C)C(=O)NC2CCCCC2)[C@@H](C)CN([C@@H](C)CO)C(=O)c2cc(NC(=O)Cc3ccccc3)ccc2O1 | -19% | 7%
C#CCOCCOCCOCCNc1nc(N2CCN(C(=O)Cn3cc(CCO)nn3)CC2)nc(N2CCN(C(=O)Cn3cc(CCCCN)nn3)CC2)n1 | -2% | 1%
O=C(NC(Cc1cn(Cc2ccccc2)cn1)C(=O)O)OCC1c2ccccc2-c2ccccc21 (configuration not stated) | -15% | 11%
CCOC(=O)C1=CCN(S(=O)(=O)c2ccccc2C)C1c1cccc(C)c1 (configuration not stated) | -16% | 7%
CCCCCNC(=O)c1ccc(NC(=O)CC2SC(N3CCCC3)=NC2=O)cc1 (configuration not stated) | -12% | 7%
CCN(C)C1CN(Cc2cn(Cc3ccc(C)cc3)nn2)S(=O)(=O)C1 (configuration not stated) | -18% | -9%
Cc1ccccc1S(=O)(=O)N(C)C[C@@H]1OCc2ccccc2-c2c(n(C)c3ccccc23)C(=O)N([C@H](C)CO)C[C@@H]1C | -1% | -10%
Cc1ccccc1S(=O)(=O)NC(=O)C1(C)CCN1C(=O)CCc1cccs1 (configuration not stated) | -19% | 5%
CN(Cc1ccccc1)C(=O)c1ccc2sc([C@H]3C[C@H](O)[C@@H](CO)O3)nc2c1 | 37% | 13%[18.4 µM]
CC(=O)N(C)C[C@H]1Oc2ncc(Br)cc2C(=O)N([C@H](C)CO)C[C@@H]1C | -7% | -18%
CCc1ccc2c(F)cccc2n1 | -17% | 2%
O=C1COC(c2ccccc2O)=NN1CCCl | -22% | -12%
COc1ccc(C2CCCCCN2C(=O)C2CCN(S(=O)(=O)c3ccc(C)cc3)CC2)cc1 (configuration not stated) | ? | 2%
CC(C)(C)S(=O)N1Cc2cc(C(=O)Nc3ccc(-c4ccccc4)cc3)nc(-c3cccc(-c4cc5ccccc5o4)c3)c2[C@@H]1CCO (some centres not stated) | -12% | 8%
Cc1nc2ccc(C(=O)Nc3cccc(OCC(=O)N(C)C)c3)cn2c1N(C)CC1CCCCC1 | ? | -29%[18.4 µM]

(continued)
SMILES | 2A StopGo | RE007 growth inh
CCN1C(=O)C(C)C=C(C)C=C1C (configuration not stated) | -22% | -8%
CC(C)C[C@H](NC(=O)c1[nH]cnc1C(=O)Nc1ccccc1F)C(=O)OC(C)(C)C | -11% | -27%
Cc1ccc(S(=O)(=O)NN=Cc2ccccc2Cl)cc1 | 67%[activator] | -13%
COc1ccc(CC(N)c2csc(Nc3nc(C)cnc3C)n2)cc1 (configuration not stated) | -20% | -1%[18.4 µM]
CC(=O)Nc1cc(-c2ccc(C(=O)N3CCOCC3)cc2)cn2c(-c3cccc(C(F)(F)F)c3)cnc12 | ? | -6%
Oc1ccc(C[C@H]2CN([C@@H](Cc3ccccc3)CN3CCC[C@@H]3CN3C(=S)NC[C@@H]3Cc3ccccc3)C(=S)N2CC2CCCCC2)cc1 | -17% | -5%
CCCCOC(=O)C1=C(C)N(C)C(=O)NC1c1cc2c(cc1Br)OCO2 (configuration not stated) | -6% | -3%
C[C@@H]1COc2cc(N3CCN(Cc4ccccc4F)CC3)ccc2S(=O)(=O)N1 | -21% | ?
CCOC(=O)C1CCCN(C(=O)c2ccc(F)c(C)c2)CC1 (configuration not stated) | -5% | 0%[18.4 µM]
CCc1nc2c(OCc3ccc(F)c(F)c3)cccn2c1N(C)C(=O)c1ccc(C)cc1 | -20% | -14%
CC1(C(=O)NCc2ccccc2)Cc2c(-c3ccc4c(c3)OCO4)ccnc2O1 (configuration not stated) | -12% | 4%
Cc1cccc(C)c1NC(=O)C1c2ccccc2OCC(=O)N1CCc1ccccc1 (configuration not stated) | -18% | 8%
CCCCN1C(=O)C(CC(=O)NC2CCCCC2)CC(C(=O)N(C(C)C)C(C)C)=C1C (configuration not stated) | -8% | 7%
COc1ccc(CN2CCC[C@]3(N[C@H](c4ccc(OC)cc4)[C@@H]4C(=O)N(Cc5ccccc5)C(=O)[C@@H]43)C2=O)cc1 | -11% | 8%
Clc1cccc(N2Cc3ccccc3-n3nncc3C2)c1 | -13% | 17%
CCN(C(=O)Cn1cc(C(F)(F)F)ccc1=O)C1CCS(=O)(=O)C1 (configuration not stated) | -7% | 7%
COC(=O)[C@]12CCCCC=C1N(Cc1ccc3c(c1)OCO3)C(=O)[C@H](CC(=O)N1CCN(C(=O)c3ccco3)CC1)C2 | -26% | 11%
O=C(NC1CCN(Cc2ccccc2)CC1)c1[nH]c(C(F)(F)F)nc1-c1ccccc1 | -19%&-10% | -9%&3%
O=C1CC2(CCCCC2)Oc2ccc(F)cc21 | -9% | 2%
CC(=O)c1ccccc1NC(=O)COC(=O)C1COc2ccccc2O1 (configuration not stated) | -20% | -4%
CC(=Cc1ccccc1)C(=O)c1ccccc1 | -9% | -9%
CN(C)c1ccc(C=C2SC(=S)N(Cc3ccco3)C2=O)cc1 | -23% | 5%
CCCCCNC(=O)C(CCc1ccccc1)n1c(=O)c(-c2ccccc2)nc2ccccc21 (configuration not stated) | -16% | 13%
COc1ccc(-c2ccc(C(=O)Nc3cccc(F)c3)c3occc23)c(C)c1 | 0% | 9%[18.4 µM]
N#C[C@H]1C2OC2c2ccccc2N1C(=O)c1ccccc1 (some centres not stated) | -9% | 4%

Part of the list above in order of SMILES length, falling.
SMILES | 2A StopGo | RE007 growth inh
COC(=O)[C@]12CCCCC=C1N(Cc1ccc3c(c1)OCO3)C(=O)[C@H](CC(=O)N1CCN(C(=O)c3ccco3)CC1)C2 | -26% | 11%
CC(C)C[C@H](NC(=O)c1[nH]cnc1C(=O)Nc1ccccc1F)C(=O)OC(C)(C)C | -11% | -27%
C[C@@H]1COc2cc(N3CCN(Cc4ccccc4F)CC3)ccc2S(=O)(=O)N1 | -21% | ?
CC1(C(=O)NCc2ccccc2)Cc2c(-c3ccc4c(c3)OCO4)ccnc2O1 (configuration not stated) | -12% | 4%
CCCCOC(=O)C1=C(C)N(C)C(=O)NC1c1cc2c(cc1Br)OCO2 (configuration not stated) | -6% | -3%
Cc1ccc(S(=O)(=O)NN=Cc2ccccc2Cl)cc1 | 67%[activator] | -13%
CCN1C(=O)C(C)C=C(C)C=C1C (configuration not stated) | -22% | -8%

(listing goes on)
SMILES | 2A StopGo | RE007 growth inh
Cc1cccc(C)c1-n1nnnc1C1c2ccccc2C(=O)N1CCOc1ccccc1 (configuration not stated) | 44%[activator] | 0%
Cc1cccc(C)c1NC(=O)C(c1ccc(-c2ccccc2)cc1)n1c(=O)c(-c2cc3ccccc3[nH]2)nc2ccccc21 (configuration not stated) | 10% | -7%
COCCNc1nc(NC(C)C)nc2ccsc12 | -22% | -25%
CCOC1=C2CN(S(=O)(=O)c3ccc(C)cc3)[C@@H](c3ccc(CC)cc3)C[C@H]2[C@H]2C(=O)N(c3ccccc3)C(=O)[C@H]2C1 | -28% | -9%
O=C(O)Cc1ccc2c(c1)Cc1cccnc1O2 | -10% | 8%
CCCCNC(=O)c1nc(C2CCN(S(=O)(=O)c3ccc(Cl)cc3)CC2)oc1-c1ccccc1 | -23% | 7%
Cc1ccc(S(=O)(=O)N2C[C@@H](C)[C@]3(C2)[C@H](O)[C@H](OC(=O)NCc2ccco2)C[C@H]2C(=O)N(c4ccccc4)C(=O)[C@H]23)cc1 | -26% | -4%
CCOC1=C2[C@@H](CN(S(=O)(=O)c3ccc(C)cc3)[C@H]2c2cccs2)[C@H]2C(=O)N(c3ccccc3)C(=O)[C@H]2C1 | 21% | 5%
CN(N=Cc1ccccc1O)c1ccc2ccccc2n1 | 0% | -11%
CCSc1ccc(-c2cc(NC=O)c3ncc(-c4cc(OC)c(OC)c(OC)c4)n3c2)cc1 | -17% | 9%
CN1CC2CN(Cc3ccccc3)S(=O)(=O)C2C1 (configuration not stated) | -13% | 8%
CC(=O)c1ccc(NC(=O)CSc2nc3ccccc3c(=O)n2CCCN2CCOCC2)cc1 | 14% | -3%
c1ccc(CNc2nc(NCc3ccccc3)c3sccc3n2)cc1 | 0% | -18%
Cc1ccc(OCCN2CCC2(C)C(=O)NCc2cccc3ccccc23)cc1 (configuration not stated) | -15% | -13%
COC(=O)[C@]12CCCCC=C1N(CCc1ccc(OC)c(OC)c1)C(=O)[C@H](CC(=O)NCc1ccc(OC)c(OC)c1)C2 | -19% | 9%
CC1(C(=O)Nc2cccc3cccnc23)CCN1C(=O)CC1CC1 (configuration not stated) | 1% | 1%
CCc1nc2c(OCc3ccc(OC)cc3)cccn2c1N(C)C(=O)c1ccncc1 | -19% | 2%[18.4 µM]
COc1ccc(C(=O)OCC(=O)c2ccco2)cc1[N+](=O)[O-] | -13% | -12%
CC(C)c1ccc(S(=O)(=O)N2CCC(C(=O)N3CCN(c4cccc(Cl)c4)CC3)CC2)cc1 | -16% | -8%
c1ccc2c(CCN3CCCCC3)c[nH]c2c1 | -2% | -2%[18.4 µM]
COc1ccc(-c2cc(C(F)(F)F)nc(SCCC(=O)N3CCN(C)CC3)n2)cc1 | -14% | -3%
COc1cccc(C(C(=O)NC2CCCC2)N2CCN(c3cc(C)nc4ccccc34)CC2)c1OC (configuration not stated) | 0% | -12%
O=C1NCN(c2ccccc2)C12CCN(C(CCc1ccccc1)c1nnnn1C1CCCC1)CC2 (configuration not stated) | -13% | -9%
O=C(COC(=O)Cc1n[nH]c(=O)c2ccccc12)Nc1c(Br)cc([N+](=O)[O-])cc1Br | -17% | 13%
C[C@@H]1C=C(C(=O)NCc2nc3ccccc3[nH]2)O[C@H](OCCCCO)C1 | -12% | -4%

One compound at a time (already shown). Values in the order: 2A StopGo | RE007 growth inh
COC(=O)[C@]12CCCCC=C1N(CCc1ccc(OC)c(OC)c1)C(=O)[C@H](CC(=O)NCc1ccc(OC)c(OC)c1)C2 is listed with -19% | 9%
CC(C)c1ccc(S(=O)(=O)N2CCC(C(=O)N3CCN(c4cccc(Cl)c4)CC3)CC2)cc1 is listed with -16% | -8%
CN(N=Cc1ccccc1O)c1ccc2ccccc2n1 is listed with 0% | -11%

Carrying on:
SMILES | 2A StopGo | RE007 growth inh
CCOC(=O)c1c(C)[nH]c(C(=O)OCC(=O)NCc2ccco2)c1C | 1% | -6%
Cc1cccc(C)c1NC(=O)C1(C)CSCC(=O)N1CC(C)C (configuration not stated) | -6% | 4%
CCC(C)c1ccc(S(=O)(=O)N2CCN(C(=O)CN3C(=O)NC(C)(C4CC4)C3=O)CC2)cc1 (configuration not stated) | -14% | -7%
CCCCn1nnnc1C(c1cc2ccccc2o1)N1CCN(CC(=O)N2CCCC2)CC1 (configuration not stated) | -6% | -16%
COc1ccc(CN2C(=O)CN(S(C)(=O)=O)CC2(C)C(=O)NC(C)C)cc1OC (configuration not stated) | -6% | 0%
CN1CCN(C(c2ccccc2)c2nnnn2C(C)(C)C)CC1 (configuration not stated) | -24% | -5%
Nc1nc(N)c2[nH]cnc2n1 | -17% | 4%
CSc1ccc(Cn2c(C)c(C(=O)NCc3ccc4c(c3)OCCO4)sc2=O)cc1 | ? | 0%[18.4 µM]
COCCNC(=O)C1(C)CCCN(C(=O)c2c(-c3ccccc3)noc2C)C1 (configuration not stated) | -11% | -16%
Cc1ccccc1CN1[C@@H](Cc2ccccc2)COCCS1(=O)=O | 0% | -4%
CCOC(=O)C1=CCC(c2ccccc2)N(S(=O)(=O)c2ccc(C)cc2)[C@H]1CC (some centres not stated) | -15% | 2%
O=S1(=O)CC(c2ccccc2)=NN=C(c2ccccc2)C1 | -8% | -10%
O=C(c1ccoc1)N1CCN(c2cc(-c3ccccc3)nc3cc(-c4ccc(Br)cc4)nn23)CC1 | 22µM* | 38%
CCOC(=O)C1=CCN(S(=O)(=O)c2ccc(Cl)cc2)C1c1ccccc1 (configuration not stated) | ? | 13%
C=CC(=O)Oc1ccc(N2Cc3ccccc3C2=O)cc1 | -12% | 7.9µM*
COc1cc(Cl)ccc1OC1(C)CCN(Cc2ccc(-c3ccccn3)cc2)C1 (configuration not stated) | -19% | -24%[18.4 µM]
COC[C@@H]1CCCN1c1ccc2c(c1)O[C@@H](COCc1ccccc1)CN([C@H](C)c1ccccc1)S2(=O)=O | 11% | 4%

Not all compounds are listed (hit frequency here may not be typical).
